# MT1-MMP act inh: blocks activation of human MT1-MMP; HT1080 RFP-PRO-GFP cells, GFP/RFP ratio fluorescence, overnight; percent of plate control window, DMSO zero; GFP/RFP ratio change, % at 20 µM; 360,000 tested, 0.061% active;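 active = GFP/RFP ratio change of at least 30% with cell ATP level not reduced by more than half and red fluorescence within 50% of control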; also: strong numbers were not always called active
#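 Assay system: HT1080 cells carrying an RFP-PRO-GFP reporter | Dosing: Single dose of 20 µM compound, 1% DMSO final | Incubation: Cells overnight before dosing, compound overnight, 37 °C, 5% CO2 | Evaluation: GFP/RFP fluorescence ratio | Control set: DMSO and RFP-L50D-GFP cell wells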
# eIF4H inh: inhibitors of RNA binding by human eIF4H; 290,000 tested, 0.94% active; inhibition, % at 35 µM; eIF4H fluorescence polarization binding assay; Q15056;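 active = 50% or more with normal probe brightness, or confirmed in later tests; inconclusive = above 50% with abnormal brightness, or retests that disagree; inactive = below 50% or failed in later tests; about a fifth of its hits are not listed in these tables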;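 also: calls also rest on retests at 20 µM and on dose response follow-up; 0% = protein and probe with vehicle and 100% = probe without protein; strong numbers were not always called active; many hits fall short of the cut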
# CSC inhib: cancer stem cell inhibition; cancer stem cell-like cells viability, luminescence; inhibition, % at 7.5 µM; 300,000 tested, 1.1% active; AID 2717;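 active = mean at 75% or more and at least half the replicates too; inconclusive = mean and replicates disagree; tested in HMLE shEcad cells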;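 also: 0% = median of negative and 100% = median of positive control wells; the first replicate is given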
# HIV Env fusion: inhibitors of HIV Env-mediated cell fusion | AID 651610 | inhibition, % at 12.3 µM | 360,000 tested, 1.1% active | HeLa-JRFL Env/CEM21 cell fusion, luciferase;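 active = mean replicate inhibition score of at least 50 and every replicate individually at or above 50; inconclusive = only one of the two criteria met; inactive = mean below 50 and not all replicates reaching 50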;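 also: 0% = plate neutral controls and 100% = maraviroc near 300 nM; one replicate is shown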
# Yeast UUG start: yeast start codon fidelity modulation | AID 602363 | S. cerevisiae UUG-firefly luciferase reporter, luminescence/redox ratio | activity score, % at 18.7 µM | 350,000 tested, 0.13% active;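 active = replicate mean at a twofold rise or more, about +100% in these data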;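 also: firefly luciferase made from a UUG start codon reports start codon fidelity; reporter light over untreated wells divided by growth signal over untreated wells; some hits fall short of that in this replicate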
# Rce1 inh: inhibitors of yeast Ras-converting enzyme; yeast membranes, quenched prenylated peptide cleavage fluorescence; 290,000 tested, 0.27% active; Q03530; calls only;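 active = fall in fluorescence gain of 50% or more versus controls, with final raw signal at or below 3038400; inconclusive = same 50% fall but final raw signal above 3038400; inactive = fall in fluorescence gain under 50%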;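 also: plate controls were neutral control wells for no effect and wells lacking membranes for full effect; tested at 10 µM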
# Target sequence (Q03530 whole entry, looked up): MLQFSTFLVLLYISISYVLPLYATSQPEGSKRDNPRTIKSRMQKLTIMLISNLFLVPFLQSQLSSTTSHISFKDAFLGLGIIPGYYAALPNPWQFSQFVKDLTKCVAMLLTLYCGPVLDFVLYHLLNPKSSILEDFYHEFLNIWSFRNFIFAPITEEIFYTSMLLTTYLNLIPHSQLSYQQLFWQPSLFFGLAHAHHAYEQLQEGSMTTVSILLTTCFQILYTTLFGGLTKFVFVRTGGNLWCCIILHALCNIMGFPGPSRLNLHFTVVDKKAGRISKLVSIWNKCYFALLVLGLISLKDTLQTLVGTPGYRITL
# PABP FP inh: PABP-poly(A) binding inhibition | P11940 | PABP-poly(A) RNA binding, fluorescence polarization | inhibition, % at 35 µM | 290,000 tested, 1% active;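 active = 50% or more with normal probe brightness, or confirmed in later tests; inconclusive = above 50% with abnormal brightness, or retests that disagree; inactive = below 50% or failed in later tests; about a fifth of its hits are not listed in these tables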;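 also: calls also rest on retests at 20 µM and on dose response follow-up; controls were probe without protein and protein plus probe with vehicle; some compounds called inactive have numbers as strong as hits; many hits fall short of the cut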
# Target sequence (P11940 whole entry, looked up): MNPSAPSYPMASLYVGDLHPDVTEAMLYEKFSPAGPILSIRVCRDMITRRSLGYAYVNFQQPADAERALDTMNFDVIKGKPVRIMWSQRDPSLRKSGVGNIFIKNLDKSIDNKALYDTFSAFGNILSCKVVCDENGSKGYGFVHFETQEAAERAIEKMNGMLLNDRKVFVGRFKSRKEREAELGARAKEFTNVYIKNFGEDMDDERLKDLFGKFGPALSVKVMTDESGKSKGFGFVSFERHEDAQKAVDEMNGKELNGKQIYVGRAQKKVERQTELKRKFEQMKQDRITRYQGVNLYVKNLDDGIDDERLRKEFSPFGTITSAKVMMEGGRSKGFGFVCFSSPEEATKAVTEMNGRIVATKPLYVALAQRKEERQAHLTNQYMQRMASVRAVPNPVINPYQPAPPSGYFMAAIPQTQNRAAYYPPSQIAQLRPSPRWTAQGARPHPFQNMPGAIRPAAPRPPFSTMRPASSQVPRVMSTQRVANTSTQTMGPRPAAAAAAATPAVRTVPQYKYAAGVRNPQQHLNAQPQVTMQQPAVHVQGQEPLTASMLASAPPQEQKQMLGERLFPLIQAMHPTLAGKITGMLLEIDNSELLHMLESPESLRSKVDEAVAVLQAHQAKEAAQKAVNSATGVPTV
# eIF4H inh retest: also measured in eIF4H inh; calls as there; inhibition, %; compound at 20 µM; confirmation average;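 mean of two retest wells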
# PABP FP inh retest: further read-out of PABP FP inh, marked with its call; inhibition, %; compound at 20 µM; confirmation repeats;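 mean of two retest wells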
# MT1-MMP act inh RFP: also measured in MT1-MMP act inh; calls as there; RFP signal change, %; measured here: RFP expression control read;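 0 = vehicle wells; hits needed this value within 50% of zero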
# * hit, by the source's call; i = inactive; ? = inconclusive; . = not tested or not shown. Only part of the results is shown; rates above refer to the full screens.
SMILES,MT1-MMP act inh,MT1-MMP act inh RFP,eIF4H inh,CSC inhib,HIV Env fusion,Yeast UUG start,Rce1 inh,PABP FP inh,others
COc1ccc(C(CCN2CCOCC2)c2c(OC)cc(OC)c3ccc(=O)oc23)cc1 (stereo not drawn),-1,1,.,.,19,-31,.,.,
COc1ccc(N2C(=O)/C(=C/c3ccc([N+](=O)[O-])cc3)C=C2c2ccccc2)cc1,-4,-2,-2,0,.,2,i,-2,
COc1ccc(NC(=O)CNC(c2ccccc2)c2ccccc2)cc1Cl,4,-1,8,59,-5,0,i,6,
CCN(CC)S(=O)(=O)c1ccc(O)c(C(=O)OCC(=O)Nc2cc(C)c(C)cc2[N+](=O)[O-])c1,0,-3,8,4,17,.,i,-4,
Cc1ccc2c(c1)N(CC(=O)NC(C)CCc1ccccc1)C(=O)c1cccnc1O2 (stereo not drawn),1,-1,-9,-10,-6,7,i,-9,
COCCCN(Cc1ccco1)C(=O)Cn1ncc2c(=O)oc3ccc(C)cc3c21,.,.,-3,5,-2,-14,i,-4,
O=C(NCc1cccnc1)C(=O)NCC1OCCN1S(=O)(=O)c1ccccc1 (stereo not drawn),6,1,5,7,-16,-14,i,11,
COc1cc2c(cc1OC)CN(Cc1cccs1)CC2,4,-3,-3,7,-9,21,i,-6,
Cc1ccc(C)c(N2CCN(C(=O)CCCN3C(=S)NC(C)(C)CC3C)CC2)c1 (stereo not drawn),7,-27,-6,4,?,-26,i,10,
Cc1nc(N)[nH]c(=O)c1CCCNS(=O)(=O)c1ccc([N+](=O)[O-])cc1,3,1,.,.,11,3,.,.,
O=C(CN1CCN(CC(=O)Nc2ccccc2Cc2ccccc2)CC1)Nc1ccccc1Cl,-2,-8,0,9,4,11,i,2,
Cc1ccc(S(=O)(=O)N/N=C\c2ccc3c(c2)OCO3)cc1,-5,2,-4,-13,.,-1,i,-8,
CCCOC(=O)/C(=C\C=C\c1ccccc1)NC(=O)c1ccccc1,-2,-4,6,10,-15,.,.,6,
Cn1c(COc2ccccc2)nnc1SCC(=O)Nc1ccc(N2CCOCC2)c(Cl)c1,3,3,-9,-16,-19,.,i,-9,
CC1CCCCN1c1nc(-c2ccncc2)nc2ccccc12 (stereo not drawn),-5,-9,-2,.,-62,-4,i,-1,
O=[N+]([O-])c1ccc(-n2nncc2-c2ccc(Cl)cc2)cc1,2,1,-9,-4,.,-6,i,10,
COc1ccc(-c2ccc(CCC(=O)O)n2CC(C)C)cc1,-4,2,12,21,-33,-8,i,3,
O=C(COC(=O)Cc1ccc(-c2ccccc2)cc1)NCc1ccccc1,1,2,-5,-1,3,-3,i,4,
O=C(CCS(=O)(=O)c1ccccc1)Nc1cccc2c1C(=O)NC2=O,1,2,1,-4,-13,.,i,-3,
O=C(c1ccc2nc(Cc3cccc(Cl)c3)oc2c1)N1CCC[C@H]1CO,-2,-1,3,.,5,-4,i,2,

# Pulled by compound from the entries so far (2):
SMILES,MT1-MMP act inh,MT1-MMP act inh RFP,eIF4H inh,CSC inhib,HIV Env fusion,Yeast UUG start,Rce1 inh,PABP FP inh,others
Cc1ccc(S(=O)(=O)N/N=C\c2ccc3c(c2)OCO3)cc1,-5,2,-4,-13,.,-1,i,-8,
COc1ccc(C(CCN2CCOCC2)c2c(OC)cc(OC)c3ccc(=O)oc23)cc1 (stereo not drawn),-1,1,.,.,19,-31,.,.,

# Remaining list, next part.
SMILES,MT1-MMP act inh,MT1-MMP act inh RFP,eIF4H inh,CSC inhib,HIV Env fusion,Yeast UUG start,Rce1 inh,PABP FP inh,others
Cc1ccc(Nc2oc(C)nc2C#N)cc1,4,-3,-8,.,.,.,i,-3,
COCCNC(=O)C1(C)CCN(C(=O)c2cc(-c3ccccc3)cs2)C1 (stereo not drawn),9,6,.,.,-15,1,.,.,
COc1cccc(OCCc2c(C)n[nH]c2C)c1,-1,-4,-6,-1,-14,-3,i,15,
O=c1[nH]c2ccccc2n2c(C(F)(F)F)nnc12,-28,2,89,-14,7,3,i,14,eIF4H inh retest=18;PABP FP inh retest=11
COc1ccc(/C=C2\SC(=S)N(CC(=O)NC3C=CS(=O)(=O)C3)C2=O)cc1 (stereo not drawn),-1,2,-8,10,2,-2,i,2,
FC(F)(F)c1ccccc1-n1c(-c2ccco2)n[nH]c1=S,-2,1,-15,1,-12,-15,.,17,
Cc1cc(C)c(-c2c(O)c3ccccc3n(C)c2=O)c(C)c1,4,1,.,-13,-5,17,i,.,
C=CCSc1nnc(-c2cc3c(s2)-c2ccccc2CC3)o1,-4,1,-8,-8,.,-17,i,6,
CC(=O)N1CCN(c2ccc(NC(=O)c3ccc([N+](=O)[O-])cc3Cl)cc2)CC1,5,2,6,2,0,-4,i,8,
Cc1ccc(NC(=O)CSc2nncn2-c2ccccn2)cc1Cl,1,2,-8,11,-45,-13,i,1,
CN(c1ccccc1)c1cc(=O)[nH]c(=O)[nH]1,-7,-2,13,-10,17,.,i,-7,
CCOC(=O)CC1C(=O)NCCN1Cc1ccc(OC)c(OC)c1 (stereo not drawn),5,6,-12,-5,-3,.,i,2,
COc1ccccc1CNC(=O)c1ccccc1N(C)S(C)(=O)=O,-2,1,11,-2,.,-5,i,1,
O=S1(=O)CC(N2CC=CC2)CN1Cc1ccccc1 (stereo not drawn),4,6,.,.,2,-9,.,.,
CC(=O)Nc1ccc(C(=O)COC(=O)Cc2ccsc2)c(F)c1,-7,-1,.,-23,24,0,.,.,
CCOC(=O)C1CCCN(C(=O)c2ccc(OCC)cc2)C1 (stereo not drawn),1,2,-5,.,5,-3,i,3,
COc1ccccc1N1CCN(C(=O)c2cc(-c3ccccc3)nc3c2cnn3C(C)C)CC1,0,0,.,.,11,1,.,.,
Cc1cc(C)cc(N(CCC#N)C(=O)COC(=O)CN2C(=O)NC(C)(C)C2=O)c1,6,1,.,-8,-69,.,i,.,
N#CC(C#N)=C1C=CC=CN1/C(=C\c1ccccc1)C(=O)c1cccs1,-25,12,?,-1,19,.,i,5,
C=CCN(c1ccc(C(=O)Nc2ccc(C)c(C)c2)cc1)S(C)(=O)=O,7,-2,6,1,15,.,i,2,
CC(NC(=O)c1ccccc1F)c1nnc(SCC(=O)NC2CCCC2)n1C (stereo not drawn),5,4,-6,-7,21,-8,i,4,
NS(=O)(=O)c1ccc(N2N=C(c3ccccc3)CC2c2cccc(Br)c2)cc1 (stereo not drawn),-5,-2,.,.,-1,-11,.,.,
CCOCCc1nnc(NC(=O)c2ccc(OC)c(OC)c2)s1,1,3,-1,24,.,-4,i,-2,
O=C(Cn1nnc(-c2ccncc2)n1)N1CCc2ccccc21,7,4,1,.,.,-22,i,0,
CN(CC(=O)Nc1ccccc1F)CC(=O)Nc1ccc(F)c(F)c1F,-1,5,-5,-2,-2,.,i,4,
NC(=O)NC(CC(=O)NNC(=O)c1ccccn1)c1ccc(Cl)cc1 (stereo not drawn),2,5,.,-12,2,-13,.,.,
Cc1ccc(CNC(=O)CN(C)S(=O)(=O)c2cccc3cccnc23)cc1,-2,5,-10,10,-20,-8,i,-3,
COc1ccc(CCNC(=O)c2ccccc2NS(=O)(=O)c2c(F)cccc2F)cc1,2,0,-5,6,-8,16,i,6,
Cc1cc(=O)n2[nH]nnc2n1,3,5,-3,-12,-16,-17,i,6,
CCCSc1nnc(NC(=O)CSc2nc3[nH]c(=O)cc(O)c3s2)s1,-2,3,.,-4,0,-12,.,.,
Cc1ccccc1C(=O)O/N=C(\N)c1cccc([N+](=O)[O-])c1,4,4,-6,0,-166,-9,i,2,
COc1ccc(C(=O)O/N=C(/c2ccccc2)c2ccncc2)cc1OC,-3,-2,1,-10,5,.,i,-14,
O=C1CCC/C=C\C[C@H](CC(=O)N(CCO)Cc2ccccc2)C(=O)N2CCC[C@@H]2CO1,-1,0,.,.,2,-1,.,.,
Cc1ccc(S(=O)(=O)N(Cc2ccc(F)cc2)Cc2ccco2)cc1,0,-14,-8,7,.,0,.,-2,
COc1cccc(/C=C(\C(=O)O)c2ccccc2)c1,-2,4,1,-6,-12,.,i,-23,
CN(C)CC(C)(C)CNS(=O)(=O)c1ccc(OC(F)(F)F)cc1,1,1,-7,11,-4,.,i,14,
O=C(CSc1nc(NS(=O)(=O)c2ccccc2)cc(=O)[nH]1)Nc1ccccc1C(F)(F)F,2,3,-4,-9,5,-9,.,13,
CCOc1ccc(N2C(=O)CC(N3CCN(c4ccc(C(=O)c5ccncc5)cc4)CC3)C2=O)cc1 (stereo not drawn),7,-22,.,-6,.,-18,i,.,
O=C(c1cccc(Cl)c1)N1CCCC(c2ccc(Cl)cc2)=N1,-1,-4,10,49,.,4,i,10,
O=C(CCCn1nnc(-c2cccnc2)n1)c1ccc(F)cc1,1,0,8,-6,.,-6,i,-14,
Cc1ccccc1Nc1nc2ccccc2s1,-2,1,-8,-1,.,-6,i,-3,
NCC(=O)NCC(=O)NC[C@H]1O[C@@H](n2ccc(=O)[nH]c2=O)[C@H](O)[C@@H]1O,3,3,.,.,-1,-10,.,.,
Cc1ccc(CNS(=O)(=O)c2c(C)[nH]c(C)c2C(=O)N2CCCC2)cc1,4,3,-9,1,1,-13,i,2,
Fc1ccc(N2CCN(C(=S)NCC3CCCO3)CC2)cc1 (stereo not drawn),-1,-1,12,-6,-5,.,i,3,
CN(C)CCN(CC1CCCN(Cc2ccccc2F)C1)C(=O)c1ccc(Cl)cc1 (stereo not drawn),7,5,0,21,-75,0,i,-4,
Cc1ccc2oc(C(=O)N3CCC(C(N)=O)(N4CCCCC4)CC3)c(C)c2c1,6,-2,-7,-24,6,-10,i,-2,
CN(c1ccccc1)S(=O)(=O)c1ccc(NC(=O)c2ccc(-c3ccccc3)cc2)cc1,-5,-23,-11,15,.,-9,i,0,
Cc1ccc(/C=C2\C(=O)NC(=O)N2C)o1,-5,0,4,18,.,-23,i,-12,
Cc1ccc(S(=O)(=O)Cc2ccc(C(=O)N3CCCCC3C)cc2)cc1 (stereo not drawn),-1,-2,3,12,-5,-10,i,4,
Cc1cc2c(cc1C)NC(c1cccnc1)C1=C(CC(C)(C)CC1=O)N2 (stereo not drawn),-1,3,-6,.,.,-16,i,4,
CCOC(=O)CNC(=O)/C=C/c1ccc2c(c1)OCO2,-2,-2,-1,-1,0,.,i,-7,
N#Cc1ccc(OCC(O)CN2CCN(CC(O)COc3ccc(C#N)cc3)CC2)cc1 (stereo not drawn),2,-4,3,3,11,-6,i,1,
Cc1c(CC(=O)O)c(=O)oc2cc3c(cc12)CCC(C)(C)O3,-1,-2,0,-1,13,-14,i,13,
CSc1ncccc1C(=O)OCc1cccc([N+](=O)[O-])c1,-1,0,6,-19,5,-8,i,42,
CC1=NN(C(=O)Cc2ccccc2)C(O)(c2cccnc2)C1 (stereo not drawn),3,1,-10,.,-64,.,i,4,
CC(=O)c1cccc(NC(=O)C(NC(C)C)c2ccccc2)c1 (stereo not drawn),0,0,5,.,-12,.,i,-4,
Cn1nc(C(F)(F)F)cc1C(=O)Nc1ccc(Cl)cc1,2,1,1,2,-25,4,i,-4,
Cc1cccc2cc(CN(Cc3ccc(F)cc3)C(=O)N3CCOCC3)c3nnnn3c12,-1,-1,10,-12,-31,.,i,19,
O=C(NCc1ccco1)c1ccc(Cn2c(=O)c3ccccc3n(Cc3cccc(F)c3)c2=O)cc1,2,0,8,19,85*,-12,i,9,
C=CCn1c(O)c(C(CC)=NCCN2CCOCC2)c(=O)[nH]c1=O,0,5,7,-6,-8,-8,i,15,

# From PubChem BioAssay
